# Arbovirus inh: antivirals against arbovirus infection, primary screen, cell-based, full library, 10K replicate subset | arbovirus infection cell-based antiviral screen | inhibition, % at 10 µM | 0.37% of 200,000 active;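 active = inhibition from about 30%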;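 note: bluetongue infection of BSR cells; cell survival read as ATP light after 72 h; 0% = infected wells without compound and 100% = uninfected wells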
# RecA splice inh: Mtb RecA intein splicing inhibitors, primary screen, biochemical, fluorescence, HTS; Protein RecA (Mycobacterium tuberculosis (strain ATCC 25618 / H37Rv)), P9WHJ3; cell-free RecA intein splicing; inhibition, %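 (about 9 µM by stock and volumes)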; 0.75% of 290,000 active; AID 2221, 2009; in the data active = inhibition above about 30%; inconclusive = no clear call, values can overlap the other calls;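 note: 0% = vehicle wells and 100% = reference inhibitor control wells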
# Target sequence (P9WHJ3 whole entry, looked up, canonical isoform): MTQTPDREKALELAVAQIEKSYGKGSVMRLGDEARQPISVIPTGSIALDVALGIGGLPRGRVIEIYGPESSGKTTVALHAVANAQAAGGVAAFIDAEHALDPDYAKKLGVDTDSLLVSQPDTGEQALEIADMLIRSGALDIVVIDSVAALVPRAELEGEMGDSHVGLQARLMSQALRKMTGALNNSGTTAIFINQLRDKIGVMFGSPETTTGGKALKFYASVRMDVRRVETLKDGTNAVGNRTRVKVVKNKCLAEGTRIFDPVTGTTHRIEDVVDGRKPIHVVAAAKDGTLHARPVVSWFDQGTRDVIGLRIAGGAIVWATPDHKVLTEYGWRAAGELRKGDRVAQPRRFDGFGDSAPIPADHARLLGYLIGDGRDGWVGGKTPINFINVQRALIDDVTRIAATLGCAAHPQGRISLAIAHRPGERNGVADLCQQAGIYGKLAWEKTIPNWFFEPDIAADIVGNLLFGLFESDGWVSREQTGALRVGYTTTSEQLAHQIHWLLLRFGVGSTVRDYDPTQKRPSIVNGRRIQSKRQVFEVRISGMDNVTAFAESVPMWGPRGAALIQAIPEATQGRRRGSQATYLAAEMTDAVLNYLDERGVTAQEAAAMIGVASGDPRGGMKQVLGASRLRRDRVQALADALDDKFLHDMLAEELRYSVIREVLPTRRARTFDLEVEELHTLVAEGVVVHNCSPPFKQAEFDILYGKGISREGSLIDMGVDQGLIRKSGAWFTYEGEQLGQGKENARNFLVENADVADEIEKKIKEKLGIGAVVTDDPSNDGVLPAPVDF
# YopH inh: YopH tyrosine phosphatase inhibitors, primary screen, biochemical, fluorescence Ex485/Em525. YopH tyrosine phosphatase [Yersinia enterocolitica]. inhibition, %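 (about 10 µM by stock and volumes)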. 0.16% of 140,000 active;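 active = inhibition of 50% or more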;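 note: controls were vehicle for no effect and minimum signal wells for full effect; inactives centre near -20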
# Mtb bLac sens: beta-lactam sensitization of Mtb H37Rv, H37Rv | inhibition, % at 25 µM | M. tuberculosis H37Rv growth with meropenem, percent inhibition; hits of this screen are not shown here | 0.27% of 330,000 active | AID 434955, 2010;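 active = about 74% or more and at least 40 points above the plate without the antibiotic, then above 30% in a dose series; inconclusive = first-round hits that could not be retested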;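 note: growth measured after seven days incubation then overnight dye step; 0% = bacteria only wells and 100% = bacteria with antibiotic; twin plates without the antibiotic show which effects depend on it; some results filed as inactive read as strong as hits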
# Mtb H37Rv: M. tuberculosis H37Rv growth inhibitors, H37Rv strain (AID 1626); 0.95% of 220,000 active; M. tuberculosis H37Rv growth inhibition; higher % means a stronger effect; one-dose inhibition, % at 10 µM; IC50 in µM for titrated hits;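 active = confirmed in a dose series; inconclusive = inhibition above 80% but not taken into the dose series; inactive = below 80% or under 30% at every dose of the series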;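 note: bacteria incubated seven days before Alamar blue readout; 0% = bacteria only wells and 100% = bacteria with antibiotic wells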
# Arbovirus inh repeat: second read-out of Arbovirus inh, no call of its own (marks repeat the call); inhibition, %; measured here: 10K subset replicate screen; many hits read low in the repeat;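 first of two repeat runs on a subset; 0% = infected and 100% = uninfected wells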
# Starred values were filed as active, the others as inactive; ? = inconclusive; nt = no result given. Some of the compounds tested. The share of hits here may be higher or lower than overall.
# The opening 12 records (preview)
SMILES,Arbovirus inh,RecA splice inh,YopH inh,Mtb bLac sens,Mtb H37Rv,others
Cc1csc2nc(CNS(=O)(=O)N(C)C)cn12,4,0.1,-24,-1,-8%,Arbovirus inh repeat=1
Cc1cc(NC(=O)CSc2nnc(-c3c[nH]c4ccccc34)n2-c2ccc(Cl)cc2)no1,2,2.0,-7,-2,-8%,
O=C(Nc1ccc(Cl)cc1)N1CCCC(Cn2cccc2)C1 (stereo unspecified),nt,2.9,nt,-7,-7%,
COc1cc(NC(=O)CSc2nccc(C)n2)c(C)cc1[N+](=O)[O-],-10,5.8,-24,5,-4%,
CC(=O)NS(=O)(=O)c1ccc(NC(=O)c2cc3c(=O)n4ccccc4nc3s2)cc1,nt,-66,nt,0,-8%,
CCOc1ccc(N(CC(=O)NCc2ccccc2C)S(C)(=O)=O)cc1,nt,-0.4,nt,3,nt,
Cc1cc(C)c(S(=O)(=O)Cc2ccccc2)c(Cl)n1,nt,0.1,nt,-8,nt,
O=c1[nH][nH]cc1C=NCc1cccc(C(F)(F)F)c1,5,1.0,nt,0,-3%,
O=C(COc1ccc(N2C(=O)c3ccccc3C2=O)cc1)c1ccccc1,4,-0.9,-2,0,-2%,
O=C1NCC(COCc2ccco2)O1 (stereo unspecified),11,-1.1,2,8,-2%,
Clc1ccc(-c2csc(Nc3ccccc3)[n+]2Cc2ccco2)c(Cl)c1,-12,8.4,nt,nt,-2%,
O=C(Nc1ccc2c(c1)nc1n2CCOC1)c1ccccc1,-1,-0.3,-4,-5,-9%,

# Results, previewed entries included:
SMILES,Arbovirus inh,RecA splice inh,YopH inh,Mtb bLac sens,Mtb H37Rv,others
Cc1csc2nc(CNS(=O)(=O)N(C)C)cn12,4,0.1,-24,-1,-8%,Arbovirus inh repeat=1
Cc1cc(NC(=O)CSc2nnc(-c3c[nH]c4ccccc34)n2-c2ccc(Cl)cc2)no1,2,2.0,-7,-2,-8%,
O=C(Nc1ccc(Cl)cc1)N1CCCC(Cn2cccc2)C1 (stereo unspecified),nt,2.9,nt,-7,-7%,
COc1cc(NC(=O)CSc2nccc(C)n2)c(C)cc1[N+](=O)[O-],-10,5.8,-24,5,-4%,
CC(=O)NS(=O)(=O)c1ccc(NC(=O)c2cc3c(=O)n4ccccc4nc3s2)cc1,nt,-66,nt,0,-8%,
CCOc1ccc(N(CC(=O)NCc2ccccc2C)S(C)(=O)=O)cc1,nt,-0.4,nt,3,nt,
Cc1cc(C)c(S(=O)(=O)Cc2ccccc2)c(Cl)n1,nt,0.1,nt,-8,nt,
O=c1[nH][nH]cc1C=NCc1cccc(C(F)(F)F)c1,5,1.0,nt,0,-3%,
O=C(COc1ccc(N2C(=O)c3ccccc3C2=O)cc1)c1ccccc1,4,-0.9,-2,0,-2%,
O=C1NCC(COCc2ccco2)O1 (stereo unspecified),11,-1.1,2,8,-2%,
Clc1ccc(-c2csc(Nc3ccccc3)[n+]2Cc2ccco2)c(Cl)c1,-12,8.4,nt,nt,-2%,
O=C(Nc1ccc2c(c1)nc1n2CCOC1)c1ccccc1,-1,-0.3,-4,-5,-9%,
CCc1ccc(NC(=O)c2noc3c2CCC3)cc1,5,nt,-25,6,0%,
Cc1ccc(C(=O)NNC(=O)CCC(=O)Nc2cccc(Cl)c2C)cc1,-11,-7.9,-42,3,-11%,
CN(Cc1ccccc1)c1ccc2nnc(-c3ccccc3)n2n1,-10,3.3,-23,40,nt,
O=C(c1ccco1)N(CCC(c1ccccc1)c1ccco1)Cc1ccco1 (stereo unspecified),6,16,-44,3,-7%,
COCc1ccc(C(=O)N2CCCC(CCC(=O)NCc3ccccc3F)C2)o1 (stereo unspecified),-15,-2.4,nt,-8,3%,
Cn1nnc(C(O)CNCc2ccc(Cl)cc2)n1 (stereo unspecified),0,-0.1,nt,-12,7%,
CCCCCC(=O)NNC1CC(=O)N(c2ccccc2)C1=O (stereo unspecified),nt,nt,nt,-3,-3%,
O=C(c1ccc(NS(=O)(=O)/C=C/c2ccccc2)cc1)N1CCCCC1,nt,-1.8,nt,-7,nt,
Cc1cccc(OCCCC(=O)NNC(=O)CCN2CCN(c3ccccc3)CC2)c1,nt,-1.2,nt,1,nt,
Cc1ccc(S(=O)(=O)N(CC(=O)NCc2ccncc2)C2CCCCC2)cc1,2,1.7,-24,-5,-4%,
CCOC(=O)C1CCN(Cc2cccc(Oc3ccc(Cl)cc3)c2)CC1,nt,3.9,nt,6,nt,
O=C(NCCc1cccs1)C(c1ccccc1)c1ccccc1,nt,3.2,nt,-1,nt,
Cc1ccnc(SCC(N)=O)n1,2,1.7,nt,-2,-1%,

# The results go on:
SMILES,Arbovirus inh,RecA splice inh,YopH inh,Mtb bLac sens,Mtb H37Rv,others
Cc1ccc(CNC(=O)CCSCc2ccccc2F)cc1,nt,0.1,nt,12,nt,
O=C(NCc1ccncc1)C(=O)N/N=C/c1ccccc1OCc1ccccc1,4,-0.6,nt,0,2%,
O=C(Nc1ccccc1Cl)C1CCN(Cc2cnn(-c3ccccc3)c2-n2cccc2)CC1,8,-2.0,-9,13,7%,
CCOC(=O)N1CCC(NC(=O)CC2C(=O)NCCN2Cc2cccc(F)c2F)CC1 (stereo unspecified),nt,-0.3,nt,-12,nt,
Cc1cccc(CSc2ccc(-c3cccs3)nn2)c1,4,4.6,-8,9,-6%,
Cc1[nH]n(C(N)=S)c(=O)c1N=Nc1ccc(Cl)cc1Cl,nt,0.0,nt,68,nt,
CCSc1ccc2nnc(-c3ccc(F)cc3)n2n1,11,1.9,-7,-7,3%,
CCOC(=O)COc1cccc2c(=O)n(CC(=O)N3CCCCC3)ccc12,nt,0.2,nt,20,2%,
COc1cc(OC)cc(C(=O)N[C@H](C(=O)Nc2nc3c(s2)CCCC3)C(C)C)c1,8,0.1,-31,6,7%,
Cc1ccc(C2CC(c3cccs3)=NN2C(=O)c2ccco2)o1 (stereo unspecified),0,3.6,nt,-1,1%,
Nc1c(NCc2ccccc2)c2ccccc2oc1=O,11,-3.8,-2,26,4%,
O=C(Nc1ccc(F)c(Cl)c1)c1nsc(Cl)c1Cl,nt,-0.8,nt,0,1%,
O=C(COc1ccc(F)cc1)Nc1nnc(C2CCCCC2)s1,nt,-1.9,nt,1,nt,
CCCNC(=O)C1CCN(S(=O)(=O)c2ccc3[nH]c(=O)ccc3c2)CC1,nt,1.2,nt,8,nt,
O=C(N/N=C/c1ccc(N2CCOCC2)c([N+](=O)[O-])c1)c1ccc(F)cc1,-5,-0.6,0,1,-9%,
Cc1nc(=O)c(-c2ccccc2)c(C)n1-c1ccccc1,nt,-1.9,nt,-13,nt,
O=C(CSCc1ccc(Cl)cc1)Nc1ccc(-c2nnc(-c3ccccc3)o2)cc1,-4,1.8,-18,3,98%,
C=CCC(CC=C)(C(=O)O)c1ccccc1,4,0.0,-15,-2,4%,
CC1CCN(S(=O)(=O)CCNC(=O)c2ccc3c(c2)OCO3)CC1,nt,-0.1,nt,-6,nt,
Cc1ccc(CNC(=O)CCc2nnc(Cc3ccc(-c4ccccc4)cc3)o2)o1,4,2.5,nt,1,-7%,
COc1ccc(-c2nc(SCC(=O)Nc3nccs3)c(-c3ccc(Cl)cc3)[nH]2)cc1,-6,0.8,-43,6,?,
CCOC(=O)C1=C(N)Oc2ccc3ccccc3c2C1c1ccc(O)c(OC)c1 (stereo unspecified),nt,20,nt,2,nt,
Cc1ccc(-n2c(SCC(=O)OC(C)C)nnc2-c2ccco2)cc1,0,3.1,-30,nt,11%,
COC(=O)c1c(-c2ccccc2)csc1NC(=O)c1c(-c2ccccc2)noc1C,14,5.8,-19,-2,5%,
COc1c(Br)cc(Br)cc1/C=N/NC(=O)c1ccncc1,-7,1.9,nt,98,?,

# Remaining list, next part
SMILES,Arbovirus inh,RecA splice inh,YopH inh,Mtb bLac sens,Mtb H37Rv,others
CCOC(=O)C1CCN(C(=O)COc2ccc(S(=O)(=O)NC(C)C)cc2)CC1,9,3.7,-24,11,19%,
Cn1c(=O)cc(N2CCOCC2)[nH]c1=O,-6,-1.6,nt,4,-4%,
COc1ccc(N2C(=O)C3CCCN3C2c2ccccc2Cl)cc1 (stereo unspecified),6,3.9,-39,5,-6%,
COc1cc(-c2ccc(NC(=O)c3ccc(C)cc3)c(OC)c2)ccc1NC(=O)c1ccc(C)cc1,-5,nt,-25,nt,5%,
Cc1cc(N/C(=N\S(=O)(=O)c2ccc(Cl)cc2)c2ccc(F)cc2)no1,-1,-2.1,-25,?,-6%,
Cc1cc(C(=O)N2CCN(S(C)(=O)=O)CC2)sc1-c1ccccc1,8,-3.5,-22,-11,1%,Arbovirus inh repeat=0
CCOc1cccc(OCCCCN2CCOCC2)c1,-11,-0.8,-44,-19,-10%,
O=C(Nc1cc(-c2nc3ncccc3o2)ccc1Cl)c1ccc([N+](=O)[O-])o1,nt,-1.5,nt,1,nt,
Cc1ccc(C)c(Oc2cc(F)nc(N)n2)c1,nt,0.0,nt,6,nt,
O=C(Nc1nc(-c2cccs2)c(-c2ccccc2)s1)c1ccco1,-16,3.6,-36,6,14%,
Cc1ccc(COc2ccc(C(=O)NN)cc2)cc1,-12,2.9,nt,13,12%,
O=C(COc1ccc2c3c(c(=O)oc2c1)CCCC3)N1CCN(c2ccc(F)cc2)CC1,nt,0.4,nt,-5,nt,
COc1ccc(CC(=O)NCc2ccccn2)cc1OC,9,-2.0,-46,-8,0%,
O=C(NCC(c1cccnc1)N1CCN(c2ccccc2)CC1)OCc1ccccc1 (stereo unspecified),4,2.2,-23,-4,-1%,
COc1ccccc1N(CC(=O)NCc1ccccc1)S(C)(=O)=O,-1,1.1,-16,-5,-10%,
CC(=O)Oc1ccc(-c2ccc(C(=O)NCCc3ccc(S(N)(=O)=O)cc3)cc2)cc1,nt,0.6,nt,-2,nt,
O=C(Nc1nc2ccc(Oc3ccccc3)cc2s1)c1cc([N+](=O)[O-])ccc1N1CCOCC1,1,0.2,-9,83,10%,
COc1cccc2c1OC[C@@H](CO)[C@H]2N(C)C(=O)Nc1ccc(Cl)cc1Cl,4,0.8,-7,-9,nt,
COc1ccc(C(=O)N2CCCc3ccccc32)cc1Br,nt,5.4,nt,2,nt,
Cc1ccc(NC(=O)CSc2nc3c(c(=O)[nH]2)CCCC3)cc1C,nt,-0.4,nt,-1,nt,
C[C@H](NC(=O)c1ccc(C(C)(C)C)cc1)C(=O)N1CCC2(CC1)NCCc1[nH]cnc12,nt,3.5,nt,3,nt,
N=c1oc2ccc(Cl)cc2cc1C(=O)Nc1ccc(F)cc1,nt,-1.3,nt,23,nt,
O=C1NN=C(CSc2n[nH]c(=S)s2)CS1,4,0.0,nt,14,-6%,
COCCn1c(SCC(=O)N2CC(=O)Nc3ccccc32)nc2ccccc2c1=O,20,nt,nt,-1,14%,
Cc1ccccc1-[n+]1c(-c2ccccc2)cc(-c2ccccc2)cc1-c1ccccc1,nt,8.2,nt,99,nt,

# (further entries)
SMILES,Arbovirus inh,RecA splice inh,YopH inh,Mtb bLac sens,Mtb H37Rv,others
CCOC(=O)CN1NC2(CCCCC2)NC1=S,6,-4.5,8,45,3%,
Cn1nccc1NC(=O)Nc1cccc(Cl)c1Cl,nt,-3.6,nt,0,-1%,
CC(NS(=O)(=O)c1ccccc1)C(c1cccs1)N1CCN(c2ccccc2)CC1 (stereo unspecified),11,7.2,-45,-7,-1%,
CC(=O)N1CCCc2cc(S(=O)(=O)Nc3ccc(C)cc3C)ccc21,6,0.4,-22,4,-1%,
CCCCOc1ccc(C2=CSC3=NCCN23)cc1[N+](=O)[O-],nt,-1.4,nt,3,nt,
COC(=O)[C@H](CCSC)NC(=O)NCc1ccc(S(N)(=O)=O)cc1,8,0.7,-37,-5,-5%,
NC(=O)c1cccnc1Oc1ccccc1,nt,-0.4,nt,0,-6%,
CCOc1ccc(C(NC(=O)c2ccco2)c2ccc(OC)c(OC)c2)cc1 (stereo unspecified),-9,-0.5,3,4,-1%,
N#CCSc1nnc(-c2ccc(S(=O)(=O)N3CCOCC3)cc2)n1CC1CCCO1 (stereo unspecified),8,nt,-21,9,-14%,
CN1C(=O)C(C)(C)c2cc(S(=O)(=O)NCC(=O)NCc3ccccc3)ccc21,nt,-15,nt,-7,nt,
COc1cc(C(=O)N2CCN(S(=O)(=O)c3ccc(C)cc3)CC2)ccc1OCc1c(C)noc1C,2,-0.3,-6,-7,-15%,
Cc1[nH]nc2c1/C(=N\O)CCC2,1,-2.2,nt,2,3%,
C=CCN1C(=O)c2ccc(C(=O)N(CC)CC(=O)Nc3ccc(OC)cc3)cc2C1=O,nt,-0.4,nt,0,nt,
N#Cc1c(NC2CCCCC2)nc(-c2ccco2)c2c1CCCC2,-4,-7.2,0,12,-2%,
